# Sa helicase inh: inhibitors of S. aureus replicative helicase, primary screen, biochemical, fluorescence unwinding readout | replicative DNA helicase (DnaC/DnaB), Staphylococcus aureus | purified S. aureus helicase, fluorescence unwinding assay; about half of the hits fall short of the stated cut | inhibition, %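 (tested at about 80 µM)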 | actives 0.05% (n = 120,000) | AID 485395, 2010;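 active = both duplicates at 50% or more, or one of them with a favoured structure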;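 note: 0% = mean of negative control wells and 100% = mean of positive control wells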
# MgrA-DNA mod: S. aureus MgrA activity modulators, primary screen, biochemical, S. aureus Newman, fluorescence polarization; inhibition, %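 (about 10 µg/mL by stock and volumes)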; actives 0.13% (n = 84,000); MgrA-DNA binding;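 active = above 50% in either of two replicates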;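 note: 0% = protein plus DNA without compound and 100% = DNA alone without protein; higher means less MgrA bound to DNA so lower polarization; one replicate is shown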
# * hit, by the source's call; / = not tested or not shown. An excerpt; the hit share may differ from the screen's.
SMILES,Sa helicase inh,MgrA-DNA mod
Cc1ccc(-n2ncc3c(=O)n(CC(N)=O)cnc32)cc1,2.0,18.4
Cc1ccc2[nH]c(CNC(=O)c3ccncc3)cc2c1,-9.0,0.3
CC(=O)n1cc(C2C(=O)CC(C)(C)CC2=O)c2ccccc21,2.0,0.7
CC1SC(=S)N(CCCC(=O)O)C1=O (stereo not drawn),11.0,/
CCC(=O)N1CCN(c2ccc(OC)cc2)CC1,16.0,-3.0
N#C/C(=N\Nc1cc(C(=O)O)cc(C(=O)O)c1)C(=O)c1ccccc1,-3.0,/
CC1CN(c2ncc(C(=O)OCc3ccc(Cl)cc3)c(C(F)(F)F)n2)CC(C)O1 (stereo not drawn),-3.0,/
Cc1ccc(-c2noc(CNC(=O)C3CCCCC3)n2)cc1,26.0,/
CCOc1ccccc1-c1noc(-c2ccncc2)n1,-12.0,/
COc1cccc(-n2c(=O)c3cc(OC)c(OC)cc3n(CC(N)=O)c2=O)c1,13.0,/
CN(c1ccc(C(=O)NCCC2=CCCCC2)cc1)S(C)(=O)=O,3.0,2.8
O=C(O)c1nccnc1-c1nc2ccccc2s1,11.0,/

# Compound profiles, as listed above. Values in the order: Sa helicase inh, MgrA-DNA mod
# `O=C(O)c1nccnc1-c1nc2ccccc2s1` is listed with 11.0, /
# `Cc1ccc(-n2ncc3c(=O)n(CC(N)=O)cnc32)cc1` is listed with 2.0, 18.4

# Next section:
SMILES,Sa helicase inh,MgrA-DNA mod
Cc1cc(C)nc(SCc2nc3scc(C)n3c2Br)n1,-5.0,/
CSc1nc2ccc(NS(=O)(=O)c3ccccc3C(F)(F)F)cc2s1,/,-0.4
O=C(CNc1ccc(Cl)cc1F)N1CCCc2ccccc21,6.0,-0.3
CCn1c(SCC(=O)Nc2ccc(OC)cc2)nc2ccsc2c1=O,16.0,-1.3
CC(=O)Nc1ccc([N+](=O)[O-])cc1C,/,-0.6
CCc1cc(S(=O)(=O)n2ccnc2)ccc1OC,17.0,-6.8
O=C(CCn1cccc1)NCCCc1ccccc1,8.0,/
O=C(CCc1ccccc1)NCCOc1ccccc1,16.0,/
COc1ccc(C2=NC(c3ccccc3OC)NC(c3ccccc3O)C2)cc1 (stereo not drawn),-15.0,1.9
Cn1c(CN2CCOCC2)nnc1SCC(N)=O,9.0,-0.6
CN(Cc1ccccc1)C(=O)C1CCN(S(=O)(=O)c2ccc3c(c2)CCCC(=O)N3)CC1,11.0,/
CC1(C)CC(=O)C2=C(C1)Oc1ccccc1C2CC(=O)c1ccc(O)cc1 (stereo not drawn),2.0,-1.2
O=C1c2ccccc2C(=O)N1CC1CC2C=CC1C2 (stereo not drawn),-5.0,/
CCC(SC1=Nc2ccccc2C2=NC(CCC(=O)NCc3ccc4c(c3)OCO4)C(=O)N12)C(=O)NC1CCCCC1 (stereo not drawn),-18.0,/
CCN(CC)C(=O)c1noc2c1CCCCC2,12.0,/
CCc1ccc(NC(=O)COC(=O)c2ccc3c(c2)nc(C)c(=O)n3CC)cc1,17.0,/
O=C(NCc1ccccc1)C1CC=CCC1C(=O)NNc1ncnc2ccccc12 (stereo not drawn),-13.0,/
CCCN1C(=O)/C(=C/C=C2/Oc3ccccc3N2CCC(=O)O)N(CCO)C1=S,-94.0,22.4
CCOC(=O)Nc1cc(=O)c2ccccc2o1,3.0,0.9
C#CCCCCCCCCCCCCCCCC(=O)O,/,1.9
COn1c(=O)c(=O)n(OC)c2ccccc21,-14.0,/
CCc1ccccc1NC(=O)CCCOc1cc(=O)n(C)c2ccccc12,-10.0,-0.6
CCOc1ccc(Nc2nc3ccccc3s2)cc1,-11.0,-1.3
O=C(CCN1c2ccccc2Sc2ccccc21)NCCN1CCOCC1,-15.0,/
CCOC(=O)c1c(C)n(-c2ccccc2)c2c1cc(OC(=O)CC)c1ccccc12,/,-13.7
O=c1c2ccccc2n(Cc2cccc(F)c2)c(=O)n1C1CCCC1,4.0,/
CCNc1cc(N2CCC(C)CC2)c2noc3c2c1C(=O)c1ccccc1-3,-123.0,/
COc1ccc(C2(CNC(=O)CCC(=O)O)CCOCC2)cc1,16.0,-2.5
Cc1occc1-c1nnc(SCC2CCCCO2)n1-c1ccccc1 (stereo not drawn),14.0,/
CSc1cccc(N/C(=N\S(=O)(=O)c2ccccc2)NN)c1,13.0,/
CC(C)N(Cc1ccccc1)S(=O)(=O)c1ccc(F)cc1,-11.0,2.5
CCOC(=O)CN1C(=O)C(O)(c2c[nH]c3ccccc23)c2ccccc21 (stereo not drawn),-3.0,2.9
O=C(O)CN1C(=O)c2cccc3c(Br)ccc1c23,-18.0,/
Cc1ccc2c(CSc3nnc(-c4ccccc4)o3)cc(=O)oc2c1,3.0,/
Cc1cc2nc3c(=O)[nH]c(=O)nc-3n(C(O)C(O)C(O)C(O)CO)c2cc1C (stereo not drawn),-98.0,/
C/C(=N\n1c(C)nc2sc3c(c2c1=O)CCCC3)N(C)C,20.0,/
O=C(Nc1ccc2[nH]c(=O)[nH]c2c1)C(F)(F)F,-6.0,-3.5
C=CCOc1ccc(C2Nc3ccccc3-c3nnc(SCC)nc3O2)cc1 (stereo not drawn),/,0.0
COC(=O)Nc1ccc2c(c1)ncn2C1CCCCC1,12.0,-1.4
COC(=O)c1ccc(COc2ccc3c(oc(=O)c4cc(OC)ccc43)c2C)o1,9.0,2.2
O=C(O)c1cc(-c2ccccc2)nc2nc(N3CCCCC3)sc12,12.0,/
CCOC(=O)C1CCCN(C(=O)c2cccc(Oc3ccccc3)c2)C1 (stereo not drawn),3.0,-0.5
Cc1cc(C(=O)NCc2ccccc2)no1,6.0,/
CCN1C(=O)/C(=C/N(C)c2ccccc2)OC1=S,13.0,1.6
CC(C)NC(=O)CNCc1ccc(N2CCCCC2)cc1,-1.0,/
Cc1ccc2nc(-c3ccccc3)cc(C(=O)NCc3ccccc3)c2c1,8.0,0.3
COC(=O)c1cc(OC)nc(OC)c1,/,0.9
Nc1cccc2c1C(=O)N(CC(=O)O)C2=O,-13.0,18.2

# An excerpt from above in order of their number in MgrA-DNA mod, highest first.
SMILES,Sa helicase inh,MgrA-DNA mod
COC(=O)c1cc(OC)nc(OC)c1,/,0.9
C=CCOc1ccc(C2Nc3ccccc3-c3nnc(SCC)nc3O2)cc1 (stereo not drawn),/,0.0
O=C(Nc1ccc2[nH]c(=O)[nH]c2c1)C(F)(F)F,-6.0,-3.5

# An excerpt of these results, with values ahead of the structure:
Sa helicase inh	MgrA-DNA mod	canonical_smiles
8.0	0.3	Cc1ccc2nc(-c3ccccc3)cc(C(=O)NCc3ccccc3)c2c1
/	0.9	COC(=O)c1cc(OC)nc(OC)c1
-13.0	18.2	Nc1cccc2c1C(=O)N(CC(=O)O)C2=O

# Continuation.
SMILES,Sa helicase inh,MgrA-DNA mod
O=c1[nH]c(SCc2ccccc2)nc2[nH]ncc12,16.0,/
COc1cccc2cc(-c3nc4sc(C(=O)Nc5cccc(F)c5)c(C)c4c(=O)[nH]3)c(=O)oc12,-5.0,4.3
c1ccc2c(Cc3c[nH]c4ccccc34)c[nH]c2c1,/,2.8
CCOC(=O)c1cnc2c(c(C)nn2C)c1Oc1cc(Cl)cc(Cl)c1,/,3.8
CCn1cc(SCC(=O)Nc2cccc(OC)c2)c2ccccc21,9.0,/
CCCC(=O)c1cc2cc(Br)ccc2oc1=O,/,-0.9
CCC(=O)N1CCc2cc(S(=O)(=O)CCC(=O)Nc3nccs3)ccc21,-7.0,/
CCSc1nc(-c2ccccc2)c(C#N)c(=O)[nH]1,-1.0,0.3
COC(=O)c1cc(Br)ccc1OC(=O)/C=C/c1ccccc1,12.0,-0.9
CC(C)c1ccc(CNC2CC2)cc1,18.0,/
CC1CCc2ccccc2N1 (stereo not drawn),19.0,-10.0
O=C(c1ccc(OC(F)(F)F)cc1)c1cc2cc(Cl)cc(Cl)c2o1,/,-2.1
Clc1nc2ccccc2c(N2CCCCC2)c1CNC1CC1,19.0,-1.1
Cc1ccccc1NS(=O)(=O)N(C)C,2.0,0.2
CCOC(=O)CCCn1ncn2c(cc3sc(CC)cc32)c1=O,8.0,/
O=C(COC(=O)C1(c2ccccc2)CC1)c1ccc[nH]1,-3.0,/
CCC[n+]1ccc(-c2c[nH]c3ccccc23)cc1,18.0,-0.8
COc1ccc(N=C(C)c2c(C(F)(F)F)[nH]n(-c3nc4ccccc4s3)c2=O)cc1OC,2.0,-1.0
CC1CC(Nc2ccccc2)c2ccccc2N1C(=O)c1ccccc1F (stereo not drawn),0.0,0.7
Cc1ccc(S(=O)(=O)OCC23C=CC(CC2)CC3)cc1,/,0.0
CC(Sc1nnc(-c2cccc(Br)c2)n1C)C(=O)NC1CC1 (stereo not drawn),-3.0,/
O=C(CSc1nnc(-c2ccccc2)n1-c1ccccc1)N/N=C/c1ccc(O)c(O)c1,11.0,/
Cc1cc(C)nc(SCC(=O)OCc2cc(=O)n3ccsc3n2)n1,10.0,/
Cc1cc(C(F)(F)F)nn1CC(=O)NN1C(=O)c2ccccc2C1=O,-6.0,/
Cc1ccc(C(=O)C(C)C2c3cc(Br)ccc3OC(=O)C2C(=O)c2ccccc2)cc1 (stereo not drawn),14.0,-0.8
CCOc1nc(-c2ccccc2)cc(-c2ccccc2)n1,-1.0,0.5
Cc1ccc(Nc2nc(CSc3nc4ccccc4s3)cc(=O)[nH]2)cc1,8.0,-0.4
CN(C1CCCCC1)S(=O)(=O)c1ccc2c(c1)OCC(C(=O)N1CCCCC1)O2 (stereo not drawn),4.0,/
COc1ccc(C(N)C(=O)O)cc1 (stereo not drawn),2.0,/
O=C(NCC1COc2ccccc2O1)C1CCN(S(=O)(=O)c2ccccc2)CC1 (stereo not drawn),2.0,/
CCc1nnc(SCc2nc(-c3ccc(OC)c(OC)c3)oc2C)c2cc3oc(C)cc3n12,-40.0,/
CC1CCN(C(=O)COC(=O)c2ccc(-c3ccccc3)cc2)CC1,5.0,0.9
COc1ccc(NC(=O)c2ccco2)cc1Nc1cc(C)nc2nc(-c3cccc(C)c3)nn12,8.0,/
Nc1ccc(-c2n[nH]c(=O)c3ccccc23)cc1N,21.0,/
O=C(O)COCC(=O)N1CCN(C2c3ccccc3-c3ccccc32)CC1,/,-0.5
COc1cccc(C2Nc3cccc4cccc(c34)N2)c1O,9.0,-0.8

# Looked up one by one from the list above:
SMILES,Sa helicase inh,MgrA-DNA mod
O=C(O)COCC(=O)N1CCN(C2c3ccccc3-c3ccccc32)CC1,/,-0.5
COc1cccc(C2Nc3cccc4cccc(c34)N2)c1O,9.0,-0.8
O=C(NCC1COc2ccccc2O1)C1CCN(S(=O)(=O)c2ccccc2)CC1 (stereo not drawn),2.0,/
COc1ccc(NC(=O)c2ccco2)cc1Nc1cc(C)nc2nc(-c3cccc(C)c3)nn12,8.0,/
COc1ccc(C(N)C(=O)O)cc1 (stereo not drawn),2.0,/

# Continued.
SMILES,Sa helicase inh,MgrA-DNA mod
CCOC(=O)N1CCN(C(=O)CN(C)S(=O)(=O)c2ccc3c(c2)C(C)(C)C(=O)N3C)CC1,-31.0,/
CNC(=O)C1CC(=O)N(Cc2ccc(F)cc2)C(=Nc2ccc(F)cc2)S1 (stereo not drawn),7.0,-0.7
O=C(CSc1ncnc2sc(-c3ccccc3)cc12)c1cccs1,/,0.6
c1ccc(-c2cc3c(ccc4nonc43)nn2)cc1,/,-7.1
CSc1nc(N)nc(C(C)C)n1,/,-1.4
O=C(CCCN1C(=O)c2ccccc2Sc2ncccc21)NCc1ccccc1Cl,4.0,2.5
C=C1CC23CC4C5[C@@]6(C)C[C@H](OC(=O)c7ccccc7)[C@@H](OC(C)=O)[C@@]57C2[C@H](OC(C)=O)[C@@H]1[C@H](O)[C@H]3[C@H]7N4C6,/,3.2
Cc1cc2nnc(C#N)c(C)n2n1,7.0,/
CCOC(=O)C1CCCCN1S(=O)(=O)c1cc2c(cc1C)NC(=O)CO2 (stereo not drawn),18.0,/
CCn1c(NC(=O)COc2cccc(C(F)(F)F)c2)nc2ccccc21,12.0,0.5
O=c1oc2ccc(Cl)cc2cc1-c1nc2ccccc2s1,-5.0,-1.7
COc1ccc(-c2nc(C)c(CCNS(=O)(=O)c3ccc(Cl)s3)s2)cc1OC,3.0,0.6
O=C(Nc1ccccc1)Nc1ccc2snnc2c1,13.0,/
CCc1c(C)sc(NC(=O)c2cccs2)c1C(N)=O,-1.0,13.1
c1ccc(CN2CCN(Cc3nnc(-c4ccccc4)o3)CC2)cc1,13.0,/
O=C(NCCO)c1cc2cc(Br)ccc2oc1=O,10.0,/
CCn1c(CCc2ccccc2)nc2ccccc21,-4.0,-3.4
CSc1nnc(C2CCCN(CC(=O)NC3CCCCC3C)C2)n1C (stereo not drawn),1.0,0.2
Nc1nc2c(c(=O)[nH]1)CCC2,1.0,0.5
c1ccc2c(c1)-c1ccccc1C2N1CCOCC1,-10.0,/
Cc1cc(-n2c(C)cc(/C=C/C(=O)N3CCN(c4ncccn4)CC3)c2C)no1,-14.0,/
CNc1ccccc1C(C)(C)c1cc(-c2cccs2)n[nH]1,-12.0,0.0
CCOC(=O)c1cn[nH]c1N,/,-2.6
CN=c1scc(-c2ccc3c(c2)OCCO3)n1/N=C/c1ccc(NC(C)=O)cc1,33.0,/
O=C(COC(=O)c1ccc(S(=O)(=O)N2CCOCC2)cc1)Nc1ncc(Cl)cc1Cl,9.0,/
O=C(CCNS(=O)(=O)c1ccccc1)N1CCCc2ccccc21,4.0,/
COc1ccc(-c2cc(NCc3ccccc3)n3cnnc3n2)cc1,3.0,/
CCN(C(=O)c1cccc(F)c1)C1CCS(=O)(=O)C1 (stereo not drawn),1.0,/
O=C(NCc1ccccc1)c1cc(-c2ccccc2)n[nH]1,11.0,-0.2
NCC(=O)NCc1ccco1,-14.0,/
COC(=O)C(C)Sc1ccc2nnc(-c3ccccc3)n2n1 (stereo not drawn),10.0,/
COc1ccc(OC)c(NC(=O)CSCC(=O)O)c1,/,-2.0
CC1S/C(=C(/C#N)C(=O)NCc2ccco2)N(Cc2ccco2)C1=O (stereo not drawn),2.0,/

# Assay outcomes as filed in PubChem.
